Ba CapD inh: inhibitors of Bacillus anthracis CapD enzyme; purified CapD enzyme, fluorescence intensity read-out; stronger effect = lower value; some hits fall short of the stated cut; z-score (no concentration beside the values); actives 0.23% (n = 140,000); AID 492967;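 active = z-score under -4 in either of two replicates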;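 also: stock transfer was 100 nL into about 40 µL; score is relative to mean and spread of the plate; one replicate is shown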
AID504770: growth inhibitors of E. coli YBA685 in a screen for V. cholerae RctB (chromosome II replication) inhibitors | E. coli YBA685 rctB-dependent plasmid, OD600 growth, 3 h; stronger effect = lower value | z-score (no concentration beside the values) | actives 0.27% (n = 130,000) | AID 504770;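 active = z-score under -2 on both plates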;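 also: wells of about 30 µL received 100 nL stock; score is relative to mean and SD of the test wells; the first replicate is given; strong numbers were not always called active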
* marks the source's active call; other numbers are inactive results; · = not tested or not shown; & = joins results of further samples.

SMILES	Ba CapD inh	AID504770
O=C(Nc1cccnc1)C1c2ccccc2C(=O)N2CCc3ccccc3C12 (stereo not given)	-0.51	0.65
CN=C(Nc1cccc(Cl)c1)SC	-0.38	-0.4
CN(Cc1ccccc1)C(=O)CSc1nc2cc(C(=O)N3CCC(C(N)=O)CC3)ccc2c(=O)n1-c1ccc(F)cc1	0.23	·
COC(=O)C1=C(C)NC2=C(C(=O)CC(C)(C)C2)C1c1ccncc1 (stereo not given)	12	2.5
CCOC(=O)c1c(NC(=O)c2ccc(C)c([N+](=O)[O-])c2)sc(C(=O)Nc2cc(C(F)(F)F)ccc2Cl)c1C	0.17	·
CC1(C)CC(NCc2ccccc2)CC(C)(C)N1	·	-0.05
O=C(CSc1nc2ccccc2c(=O)n1NC(=O)CCc1c[nH]c2ccccc12)NCC1CCCO1 (stereo not given)	-0.33	·
COCC(=O)Nc1ccc(-c2cn3cccnc3n2)cc1	-0.005	-0.05
O=C(Nc1ccc(F)cc1)C(Cc1ccccc1)N1C(=O)C2C3c4ccccc4C(c4ccccc43)C2C1=O (stereo not given)	1.2	·
COC(=O)C1=C(O)/C(=C\c2ccccc2)N=C1C	-1.6	0.55
CCSc1nnc(-c2ccccc2)c(-c2ccccc2)n1	-1.5	-0.9
Cc1ccc(-c2csc(/C=C3/NC(=O)CS3)n2)cc1	6	-2.4
COc1cc(/C=C2\C(=O)NC(=S)N(c3ccc(Cl)cc3)C2=O)ccc1OCC(=O)O	-1.1	·
O=C(NCCc1ccccc1)c1ccc(C(F)(F)F)cc1	0.15	1.2
Nc1ccc2nc(C3CCCCC3)[nH]c2c1	1.7	-0.65
C=CCN(CC=C)S(=O)(=O)c1ccc(C(=O)Nc2nnc(-c3ccc(OC)cc3OC)o2)cc1	·	0.8
O=C1CCCCCCCCCCC1CN1CCOCC1 (stereo not given)	-0.07	-0.2
Nc1nc2ccccc2n1C(=O)Cc1ccccc1	·	0.25
Cn1c2ccccc2c2cc(C(=O)NNC(=O)c3cccs3)sc21	12	·
CCOc1cccc(CN(C(C)=O)c2ccc3[nH]c(=O)[nH]c3c2)c1OCc1ccccc1	0.33	-0.7
CCN1CCN(c2ncnc3sc(C(=O)Nc4cccc(Cl)c4)c(C)c23)CC1	-0.32	·
COC(=O)C1=C(C(=O)OC)SC2(S1)C(C(=O)OC)=C(C(=O)OC)SC1=C2c2cc(C)c(C)cc2N(C(=O)c2ccc3c(c2)OCO3)C1(C)C	-0.23	·
O=C(O)CSc1c[nH]c2ccccc12	·	-0.85
COCCN(CCOC)c1nc(-c2ccccc2)nc2ccccc12	-0.43	·

In a second layout: 2 of the compounds above.
Values run as follows: Ba CapD inh | AID504770
COC(=O)C1=C(C(=O)OC)SC2(S1)C(C(=O)OC)=C(C(=O)OC)SC1=C2c2cc(C)c(C)cc2N(C(=O)c2ccc3c(c2)OCO3)C1(C)C
    -0.23 | ·
O=C(O)CSc1c[nH]c2ccccc12
    · | -0.85

The list continues.
SMILES	Ba CapD inh	AID504770
COc1ccc2c(-c3ccccc3)cc(N3CCNC(=O)C3)nc2c1	·	-1.4
NC(=O)C1(N2CCCCC2)CCN(c2ccc(C(F)(F)F)cn2)CC1	5.7	·
CSc1ncccc1C(=O)NCCc1ccccc1	·	2.5
CC(=O)c1ccccc1OC(=O)c1c(-c2c(Cl)cccc2Cl)noc1C	-0.03	·
Cc1ccc(NNC(=O)c2cccs2)cc1C	-0.04	-0.1
CCC(Sc1nc2ccccc2c(=O)n1NC(=O)CCc1c[nH]c2ccccc12)C(=O)NCc1ccco1 (stereo not given)	-0.13	·
Cc1ccc(S(=O)(=O)Nc2nc(C)c(NC(=O)NC3C=NN=C3)s2)cc1	·	-0.35
CN(CC(=O)NC(=O)Nc1ccc2c(c1)OCCO2)Cc1cccc(F)c1	·	1.6
Cc1c(Br)sc2sc(Br)c(C)c12	0.16	0.6
CCOC(=O)NC(=S)Nc1ccc(N2CC(C)OC(C)C2)cc1 (stereo not given)	-0.77	-1.8
COC(=O)c1ccc(-c2nc3ccc(C)cc3o2)cc1	·	2.3
COc1ccccc1CCC(=O)O	0.84	·
Cc1[nH]n(C(N)=S)c(=O)c1C(c1ccccc1)C(C#N)C#N (stereo not given)	-0.39	0.75
Cc1cc(C)c2c(n1)sc1c(=O)n(C(C)C(=O)NC(N)=O)cnc12 (stereo not given)	·	-0.1
CCOC(=O)/C=C1\NC(=O)CS1	0.68	-0.85
O=C1CC(c2ccccc2)CC2=C1C=Nc1ccccc1N2 (stereo not given)	-0.72	-0.25
COC(=O)c1scc(N)c1C(=O)OC	-0.78	·
CC1CCN(C2=NS(=O)(=O)c3ccccc32)CC1	-0.46	-0.5
COc1ccc(C(=O)OC2CC3CCC(C2)N3)cc1OC (stereo not given)	0.4	0.7
Cc1ccc(C2(c3ccc(C)cc3)CC2C(=O)Nc2cccc(C(F)(F)F)c2)cc1 (stereo not given)	-0.065	·
CC1(C)Cc2ccccc2-c2nc3n(c(=O)c21)CCS3	17	·
COCCn1c(-c2ccncc2)nn(CO)c1=S	·	-0.25
CC1=NN(C)C(=O)C1Cc1c(Cl)cccc1Cl (stereo not given)	0.48	1.5
Cc1ccc(Nc2nc(N)nc(CSc3nnc(-c4ccncc4)o3)n2)cc1	-0.01	-0.5
CC1(C)CC(=O)C2=C(C1)OC(N)=C(C#N)C2c1cccc(OCc2ccccc2)c1 (stereo not given)	-0.3	·
CC(C)S(=O)(=O)c1cnc(N2CCOCC2)nc1N	-0.34	-1.1
Cn1c(=O)n(N)c(=O)c2c(-c3ccc(F)cc3F)c3c(nc21)-c1ccccc1C3=O	·	0.15
O=C(Cc1ccccc1OC(=O)c1ccccc1)c1ccccc1	0.12	1.2
Cc1ccccc1N=C(N)N=C(N)N	0.84	-0.2
NC(=O)CSC1=Nc2ccccc2C2=NC(c3ccccc3)C(=O)N12 (stereo not given)	0.37	-0.15
C=CCNC(=S)Nc1ccc(C)cc1OC(F)F	0.23	0
Nc1[nH]c(=O)ncc1F	1	·
COc1ccc(NC(=O)CSc2nc3c(cc2C#N)C(=O)CCC3)cc1	0.005	0.9
Cc1ccc(NC(=O)Cc2[nH]c3ccccc3c2Sc2ccccc2)cc1	-0.33	·
NC(=O)c1cnccn1	-0.095&-0.32	-1.2
Cc1onc(-c2ccccc2Cl)c1C(=O)NN	-0.085	0.5
CN(C)c1ccnc(-n2cccc2/C=N/OCc2cccc(F)c2)c1C#N	-0.71	·
Cc1onc(-c2ccccc2Cl)c1C(=O)Nc1nnc(SCC(=O)Nc2ccccc2F)s1	·	-0.8
O=C(NNC(=S)Nc1ccc(Cl)cc1)c1cc2sccc2nc1C(F)(F)F	-0.04	·
Cc1nc(-c2ccncc2)nc(NCCNc2cc(C(F)(F)F)ccn2)c1Cl	1.2	0.5
COCCN(C1CCN(C)CC1)S(=O)(=O)c1ccc(OC)cc1	-0.27	·
CC1CN(Cn2nc(-c3ccc4c(c3)OCO4)oc2=S)CC(C)O1 (stereo not given)	·	2.4
C=C=CSc1nnnn1-c1ccc(Cl)cc1	-0.11	-0.55
c1cnc2c(c1)nnn2C1CC1	0.71	0.55
COCCN1CN(Cc2ccco2)CC2=C1CC(c1ccccc1)CC2=O (stereo not given)	-0.15	0.8
CCOC(=O)c1sc(S(C)(=O)=O)c2c1CCc1conc1-2	8.5	-0.95
CCCCN(C)S(=O)(=O)c1ccc2[nH]c(=O)ccc2c1	2	0.9
COc1ccccc1CN1C(=O)NC(CCc2ccccc2)C1=O (stereo not given)	·	-0.1
Cc1c(NC(=O)c2ccc(Br)o2)cccc1-c1nc2cccnc2s1	12	-1
Cn1c(SCc2nc3ccc(Cl)cc3n2CCO)nnc1C(F)(F)F	·	0.7
O=C(CSc1nncc2ccccc12)c1ccc(Cl)cc1Cl	-0.84	0.8
O=C(/C=C/c1cn(-c2ccccc2)nc1-c1cccnc1)N1CCCC1	-0.08	-0.05
O=c1c(Cl)c(NC2CC2)cnn1-c1ccccc1	·	-0.35
O=C(Nc1ccc(Cl)c2c1C(=O)c1ccccc1C2=O)c1ccc([N+](=O)[O-])cc1Cl	-0.065	·
O=C(Nc1ccccc1)C(=S)N1CCCC1	-0.32	-0.95
Cc1cc(C)c(C#N)c(OCc2ccccc2Cl)n1	1.2	1.2
Cc1onc(-c2c(F)cccc2Cl)c1C(=O)N[C@@H]1C(=O)N2C(C(=O)O)C(C)(C)S[C@H]12 (stereo not given in full)	-0.56	·
Oc1ccccc1C1=Nc2ccccc2N=C(c2cccc(Br)c2)C1	-0.99	·
CS(=O)(=O)N1CCN(CC(O)Cn2c3ccccc3c3ccccc32)CC1 (stereo not given)	15	-1.4
CC1=CCC2COC(c3ccccn3)C1C2 (stereo not given)	-0.07	-0.65

As entered above:
Oc1ccccc1C1=Nc2ccccc2N=C(c2cccc(Br)c2)C1 in Ba CapD inh shows -0.99
Cn1c(SCc2nc3ccc(Cl)cc3n2CCO)nnc1C(F)(F)F in AID504770 shows 0.7
O=C(Nc1ccc(Cl)c2c1C(=O)c1ccccc1C2=O)c1ccc([N+](=O)[O-])cc1Cl in Ba CapD inh shows -0.065
Cc1onc(-c2c(F)cccc2Cl)c1C(=O)N[C@@H]1C(=O)N2C(C(=O)O)C(C)(C)S[C@H]12 (stereo not given in full) in Ba CapD inh shows -0.56

Next part:
SMILES	Ba CapD inh	AID504770
CSc1sc(C(=O)NNC(=O)CCCNC(=O)OCc2ccccc2)c2c1C1(CCC2)SCCS1	-1.2	·
CN(C)c1ccc(-n2cccc2)cc1	0.86	-0.25
COc1ccc(NC(=O)C2CC(=O)N(Cc3ccc(F)cc3)C2)cc1 (stereo not given)	1.1	0.15
C#CCN1C(=O)C2C(C(=O)NC)C3C=CC2(O3)C1C(=O)NCc1ccc(OC)cc1 (stereo not given)	·	0.7
Cc1cc(S(=O)(=O)Cc2c(Cl)cccc2Cl)c(Cl)cc1Cl	-0.45	·
O=C(Cc1cn2ccsc2n1)N/N=C/c1cn(-c2ccccc2)nc1-c1cccs1	·	0.4
Cc1ccc(Oc2cc(C#N)c(C#N)cc2-n2nnc3ccccc32)cc1C	2.1	1.4
Cc1ccc(/C=C/C(=O)CCC(=O)O)cc1	-0.71	0.85
CC1(C)OC(C)(C)c2nc3ncccc3cc21	-0.37	·
CCOc1ccc2nc(N(Cc3ccccc3)C(=O)c3ccco3)sc2c1	·	-1.1
CCN(CC)S(=O)(=O)c1ccc2nc(NC(=O)c3cccs3)sc2c1	1.1	0.45
CC(C)(C)C(=O)OC[C@H]1O[C@@H](n2cnc3c(N)ncnc32)C[C@@H]1OC(=O)C(C)(C)C	-0.085	-0.4
Oc1ccccc1-c1nc(N2CCCC2)c2ccccc2n1	-0.17	-0.4
O=C(COc1ccc(Cl)cc1)Oc1ccccc1	-0.23	-0.55
COC(=O)c1cc(N)c(Cl)s1	-0.34	-0.55
O=C(O)c1cccc(N2C(=O)C3CC=CCC3C2=O)c1 (stereo not given)	-0.59	-1.6
CCOC(=O)C1CCN(c2nc3ccccc3o2)CC1	-0.2	-0.35
O=C(Cc1ccc(Cl)c(Cl)c1)N1CCC2(CC1)Nc1ccccc1S(=O)(=O)N2	1.1	0.7
O=C(NCc1cn2cc(Cl)ccc2n1)c1ccccc1	·	-0.1
N#Cc1ccc(CC(C#N)c2ccccc2)cc1 (stereo not given)	·	-0.5
Cc1cc2oc(=O)cc(CN3CCN(C(=O)C4CCCO4)CC3)c2cc1Cl (stereo not given)	·	-1.2
N#Cc1c(-n2cccc2C#N)sc2c1CCCC2	2.8	1.2
COC(=O)COc1ccc(/C=C2\C(=O)NC(=O)N(c3ccc(F)cc3)C2=O)cc1OC	0.025	·
Cc1c(Cl)cccc1N1C(=O)C2C3c4ccccc4C(C)(c4ccccc43)C2C1=O (stereo not given)	-0.23	·

Overlap with the part before: three compounds, followed by the next part.
SMILES	Ba CapD inh	AID504770
N#Cc1c(-n2cccc2C#N)sc2c1CCCC2	2.8	1.2
COC(=O)COc1ccc(/C=C2\C(=O)NC(=O)N(c3ccc(F)cc3)C2=O)cc1OC	0.025	·
Cc1c(Cl)cccc1N1C(=O)C2C3c4ccccc4C(C)(c4ccccc43)C2C1=O (stereo not given)	-0.23	·
CCOC(=O)c1c(NC(=O)CCCOc2ccc(Cl)cc2Cl)sc(C(=O)Nc2ccc(C)cc2C)c1C	-0.61	·
CCOC(=O)c1c(C)n(-c2ccccc2)c2ccc(OC(=O)c3ccccc3NC(=O)CC)cc12	4.2	0.6
CCN(CC)S(=O)(=O)c1ncn[nH]1	1.1	-0.1
COc1cccc(C2Nc3cccc4cccc(c34)N2)c1	24	·
Cn1c(N)c(N2CCNCC2)c(=O)n(C)c1=O	·	-0.4
CCN(CC)S(=O)(=O)c1cc(C(=O)N2CCc3ccccc32)ccc1Cl	-0.34	-0.4
Cn1nc(C(=O)Nc2ccccc2C(=O)NC2CCCC2)ccc1=O	·	0.5
c1ccc2c(c1)Oc1ccccc1O2	0.54	-0.5
COc1ccc(C(=O)N/N=C/c2cc(Cl)ccc2[N+](=O)[O-])cc1	-1.4	·
CCOC(=O)C1=NN(c2ccccc2)C(c2c[nH]c3ccccc23)N1c1ccc(OC)cc1 (stereo not given)	0.62	·
COC(=O)C1=C(C(=O)OC)SC2(S1)C(C(=O)OC)=C(C(=O)OC)SC1=C2c2ccc(OC)cc2NC1(C)C	-0.6	·
CCN1CCN(CCC(=O)Nc2sc3c(c2C#N)CCCCC3)CC1	0.55	0.9
Cc1cc(SCC(N)=O)nc(=O)[nH]1	·	0.45
COc1ccc(Nc2ccccc2NC(=O)c2cc3ccccc3o2)cc1	·	-0.2
CCOC(=O)c1ccc(N2CCCCC2)c(N)c1	58	-0.75
CC1(C)CC(=O)c2c(SCc3ccc(Cl)cc3)sc(C#N)c2C1	0.13	·
CCC(=O)Nc1ccc2nn(-c3ccc(CC)cc3)nc2c1	60	0.05

An unsorted share of the library. About 0.37% of those tested had a hit in this group.
